Bioassay records (PubChem BioAssay)
eIF4H FP inh – human eIF4H binding inhibitors, primary screen, translation initiation inhibitor project, biochemical, uHTS, fluorescence polarization; Eukaryotic translation initiation factor 4H (Homo sapiens), Q15056; eIF4H fluorescence polarization binding assay; inhibition, % at 35 µM; 0.94% of 290,000 active; AID 2012, 2009;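 active means 50% or more with normal probe brightness, or confirmed in later tests; about a fifth of its hits are not listed in these tables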;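 further: calls also rest on retests at 20 µM and on dose response follow-up; 0% = protein and probe with vehicle and 100% = probe without protein; strong numbers were not always called active; many hits fall short of the cut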
Rce1 inh – yeast Rce1p protease inhibitors, primary screen, biochemical, fluorescence, cell-free homogeneous; calls only; yeast membranes, quenched prenylated peptide cleavage fluorescence; 0.27% of 290,000 active;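 active means fall in fluorescence gain of 50% or more versus controls, with final raw signal at or below 3038400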;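 further: plate controls were neutral control wells for no effect and wells lacking membranes for full effect; tested at 10 µM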
Target sequence (Q03530 whole entry, looked up): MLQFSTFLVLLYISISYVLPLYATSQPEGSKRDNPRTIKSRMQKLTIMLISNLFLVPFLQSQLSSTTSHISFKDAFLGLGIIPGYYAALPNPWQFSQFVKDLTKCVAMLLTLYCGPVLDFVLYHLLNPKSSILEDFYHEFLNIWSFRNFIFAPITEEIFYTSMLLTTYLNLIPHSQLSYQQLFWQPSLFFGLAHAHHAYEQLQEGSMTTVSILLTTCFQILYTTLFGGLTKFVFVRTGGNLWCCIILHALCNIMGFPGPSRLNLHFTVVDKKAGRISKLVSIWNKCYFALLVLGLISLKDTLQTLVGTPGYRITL
CSC inhib – cancer stem cell viability inhibitors, primary screen, luminescence | 1.1% of 300,000 active | cancer stem cell-like cells viability | inhibition, % at 7.5 µM;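 active means mean at 75% or more and at least half the replicates too; tested in HMLE shEcad cells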;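 further: 0% = median of negative and 100% = median of positive control wells; the first replicate is given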
MT1-MMP act inh – blockers of MT1-MMP proenzyme processing, primary screen, HT1080 RFP-PRO-GFP cells, GFP/RFP fluorescence; GFP/RFP ratio fluorescence, overnight; percent of plate control window, DMSO zero; GFP/RFP ratio change, % at 20 µM; 0.061% of 360,000 active; AID 651647, 2012;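 active means GFP/RFP ratio change of at least 30% with cell ATP level not reduced by more than half and red fluorescence within 50% of control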; further: strong numbers were not always called active
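Compound: 20 µM single dose, 1% DMSO / System: HT1080 RFP-PRO-GFP cells / Controls: DMSO and RFP-L50D-GFP cell wells / Read-out basis: GFP/RFP fluorescence ratio / Schedule: overnight compound exposure at 37 °C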
Yeast UUG start – modulators of yeast start codon fidelity, primary screen, whole organism, S. cerevisiae, single point, plate reader | S. cerevisiae UUG-firefly luciferase reporter, luminescence/redox ratio | activity score, % at 18.7 µM | 0.13% of 350,000 active | AID 602363, 2012;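 active means replicate mean at a twofold rise or more, about +100% in these data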;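 further: firefly luciferase made from a UUG start codon reports start codon fidelity; reporter light over untreated wells divided by growth signal over untreated wells; some hits fall short of that in this replicate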
HIV Env fusion – inhibitors of HIV-1 Env-driven cell-cell fusion, primary screen, HeLa-JRFL effector, CEM21 target cells, luciferase. 1.1% of 360,000 active. inhibition, % at 12.3 µM. AID 651610, 2012;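 active means mean replicate inhibition score of at least 50 and every replicate individually at or above 50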;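 further: 0% = plate neutral controls and 100% = maraviroc near 300 nM; one replicate is shown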
PABP polyA inh – PABP poly(A) RNA binding inhibitors, primary screen, biochemical, fluorescence polarization, uHTS | Polyadenylate-binding protein 1 (Homo sapiens), P11940 | 1% of 290,000 active | inhibition, % at 35 µM | AID 2014, 2009;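 active means 50% or more with normal probe brightness, or confirmed in later tests; about a fifth of its hits are not listed in these tables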;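 further: calls also rest on retests at 20 µM and on dose response follow-up; controls were probe without protein and protein plus probe with vehicle; some compounds called inactive have numbers as strong as hits; many hits fall short of the cut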
Target sequence (P11940 whole entry, looked up): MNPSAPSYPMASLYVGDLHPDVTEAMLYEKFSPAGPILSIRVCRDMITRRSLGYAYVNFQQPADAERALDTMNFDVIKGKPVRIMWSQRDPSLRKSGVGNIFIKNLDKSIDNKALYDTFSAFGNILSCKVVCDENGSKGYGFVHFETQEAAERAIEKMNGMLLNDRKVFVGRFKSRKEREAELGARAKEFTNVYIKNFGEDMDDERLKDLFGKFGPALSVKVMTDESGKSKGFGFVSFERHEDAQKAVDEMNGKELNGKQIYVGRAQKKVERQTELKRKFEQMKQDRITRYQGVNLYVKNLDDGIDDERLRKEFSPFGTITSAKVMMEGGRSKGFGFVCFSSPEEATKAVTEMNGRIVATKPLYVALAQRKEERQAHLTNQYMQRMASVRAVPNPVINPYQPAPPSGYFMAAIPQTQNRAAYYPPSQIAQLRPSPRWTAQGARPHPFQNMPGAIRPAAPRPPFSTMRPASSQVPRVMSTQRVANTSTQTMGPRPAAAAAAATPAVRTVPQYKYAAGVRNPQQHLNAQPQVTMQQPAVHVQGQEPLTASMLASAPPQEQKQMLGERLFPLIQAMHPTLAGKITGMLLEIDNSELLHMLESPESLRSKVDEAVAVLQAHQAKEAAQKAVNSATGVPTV
MT1-MMP act inh RFP – second read-out of MT1-MMP act inh, no call of its own (marks repeat the call); RFP signal change, %; measured here: RFP expression control read;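 0 = vehicle wells; hits needed this value within 50% of zero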
* hit, by the source's call; & = joins results of further samples. Only part of the results is shown. The share of hits here may be higher or lower than overall.

Results for O=C(NNC(=O)c1ccccc1Cl)c1cc2cc(OC(F)(F)F)ccc2[nH]1 ?
eIF4H FP inh: -12; Rce1 inh: inactive; MT1-MMP act inh: 0; HIV Env fusion: -4; PABP polyA inh: -3; MT1-MMP act inh RFP: -3

How did CCOc1ccc(CCNS(=O)(=O)c2cc3c(cc2C)NC(=O)CO3)cc1OCC do in these assays?
eIF4H FP inh: -15; Rce1 inh: inactive; CSC inhib: 3; MT1-MMP act inh: 3; Yeast UUG start: -9; HIV Env fusion: 20; PABP polyA inh: -11; MT1-MMP act inh RFP: 3

How did Cc1ccc(-c2cc(C(F)F)nc(N3CCOCC3)n2)cc1 do in these assays?
eIF4H FP inh: -5; Rce1 inh: inactive; CSC inhib: 6; MT1-MMP act inh: -4; HIV Env fusion: 5; PABP polyA inh: -6; MT1-MMP act inh RFP: -3

Results for Cc1ccnc(NC(NC(=O)C(C)C)(C(F)(F)F)C(F)(F)F)c1 ?
eIF4H FP inh: -1; Rce1 inh: inactive; CSC inhib: -5; MT1-MMP act inh: 2; HIV Env fusion: 5; PABP polyA inh: -5; MT1-MMP act inh RFP: 11

Results for CSc1ccc(C(=O)N2CCC(CCC(=O)NCc3ccc(F)cc3)CC2)cc1 ?
eIF4H FP inh: -22; Rce1 inh: inactive; MT1-MMP act inh: 2; Yeast UUG start: -5; HIV Env fusion: -9; PABP polyA inh: -6; MT1-MMP act inh RFP: 3

Results for CCOc1ccc(NC(=S)NC(=O)/C=C/c2ccc(OC)cc2)c([N+](=O)[O-])c1 ?
eIF4H FP inh: 4; Rce1 inh: inactive; CSC inhib: -7; MT1-MMP act inh: 0; Yeast UUG start: 20; HIV Env fusion: -21; PABP polyA inh: -2; MT1-MMP act inh RFP: 2

How did COC(=O)C1=C(C(=O)c2ccc(C)cc2)C(c2ccccc2)n2nnnc2N1 (centres undefined) do in these assays?
eIF4H FP inh: -8; Rce1 inh: inactive; CSC inhib: -11; MT1-MMP act inh: 4; Yeast UUG start: -19; PABP polyA inh: -1; MT1-MMP act inh RFP: -5

What do the screens show for `COc1ccc2cnn(-c3ccccc3)c(=O)c2c1OC`?
eIF4H FP inh: -2; Rce1 inh: inactive; CSC inhib: -15; MT1-MMP act inh: 0; Yeast UUG start: -16; PABP polyA inh: 2; MT1-MMP act inh RFP: 0

What do the screens show for `Nc1nc2cc3ccccc3cc2[nH]c1=O`?
eIF4H FP inh: -2; Rce1 inh: inactive; CSC inhib: 9; MT1-MMP act inh: 3; Yeast UUG start: -22; HIV Env fusion: -22; PABP polyA inh: 4; MT1-MMP act inh RFP: 0

What do the screens show for `O=C(Cn1c(=O)c2cccn2c2ccccc21)NCCc1ccccc1`?
eIF4H FP inh: -6; Rce1 inh: inactive; CSC inhib: 4; MT1-MMP act inh: -2; Yeast UUG start: -4; HIV Env fusion: 2; PABP polyA inh: -7; MT1-MMP act inh RFP: 3

Results for Cc1ccc2oc(=O)c3cnn(CC(=O)NCCc4ccsc4)c3c2c1 ?
eIF4H FP inh: 0; Rce1 inh: inactive; CSC inhib: -3; MT1-MMP act inh: 1; Yeast UUG start: 13; HIV Env fusion: 9; PABP polyA inh: -4; MT1-MMP act inh RFP: -1

Results for COc1cccc(CN(C(=O)COc2ccccc2[N+](=O)[O-])C2CCS(=O)(=O)C2)c1 (centres undefined) ?
eIF4H FP inh: -16; Rce1 inh: inactive; CSC inhib: 7; MT1-MMP act inh: -1; Yeast UUG start: -6; PABP polyA inh: 3; MT1-MMP act inh RFP: 1

How did OC(c1ccc(F)cc1)c1ncc(-c2ccccc2Cl)[nH]1 (centres undefined) do in these assays?
MT1-MMP act inh: 11; Yeast UUG start: -22; HIV Env fusion: -35; MT1-MMP act inh RFP: 2

Results for Cc1nc(CCNC(=O)C2CCC(=O)N(CCc3cccc(F)c3)C2)sc1C (centres undefined) ?
eIF4H FP inh: -7; Rce1 inh: inactive; MT1-MMP act inh: -1; Yeast UUG start: -5; HIV Env fusion: 7; PABP polyA inh: -4; MT1-MMP act inh RFP: 5

What do the screens show for `CC(C)c1nc(N2CCN(C(=O)c3ccco3)CC2)c(C#N)c2c1COC(C)(C)C2`?
eIF4H FP inh: -4; Rce1 inh: inactive; CSC inhib: -6; MT1-MMP act inh: -8; Yeast UUG start: -18; HIV Env fusion: 27; PABP polyA inh: 7; MT1-MMP act inh RFP: -9

What do the screens show for `COc1ccccc1N1CCN(C(=O)CCCCCn2c(=S)[nH]c3cc4c(cc3c2=O)OCO4)CC1`?
MT1-MMP act inh: 3; Yeast UUG start: 0; HIV Env fusion: 17; MT1-MMP act inh RFP: -1

Results for CCOC(=O)N1CCN(CC(=O)Nc2c(C(=O)OC)[nH]c3cccc(Cl)c23)CC1 ?
eIF4H FP inh: -9; Rce1 inh: inactive; CSC inhib: 4; MT1-MMP act inh: -4; PABP polyA inh: -3; MT1-MMP act inh RFP: 0

How did CN(C)c1cccc(Nc2ccc(-c3ccc(OC(F)(F)F)cc3)cn2)c1 do in these assays?
MT1-MMP act inh: 3; Yeast UUG start: -9; HIV Env fusion: -7; MT1-MMP act inh RFP: 5

Results for Cc1cc(C)cc(NC(=S)NCc2ccncc2)c1 ?
eIF4H FP inh: 1; Rce1 inh: inactive; CSC inhib: -1; MT1-MMP act inh: 2; HIV Env fusion: 14; PABP polyA inh: 21; MT1-MMP act inh RFP: 2

What do the screens show for `CN=c1oc2ccc(Cl)cc2cc1C(N)=O`?
eIF4H FP inh: -1; Rce1 inh: inactive; CSC inhib: -20; MT1-MMP act inh: 0; Yeast UUG start: -27; HIV Env fusion: -51; PABP polyA inh: 4; MT1-MMP act inh RFP: 1

How did CCOC(=O)C1(Cc2cccc(OC)c2)CCCN(C(=O)c2ccccc2C)C1 (centres undefined) do in these assays?
eIF4H FP inh: 12; Rce1 inh: inactive; CSC inhib: -7; MT1-MMP act inh: -3; Yeast UUG start: 14; HIV Env fusion: -29; PABP polyA inh: 13; MT1-MMP act inh RFP: -2

How did O=C1C=C(c2ccc3ccccc3c2)C[C@@H](c2ccc(F)cc2)C1 do in these assays?
CSC inhib: 30; MT1-MMP act inh: -1; Yeast UUG start: -7; HIV Env fusion: -39; MT1-MMP act inh RFP: -1

How did CCOC(=O)[C@@H]1[C@H]2COc3ccc(Br)cc3[C@H]2N2C(=O)N(c3cccc(Cl)c3)C(=O)[C@]12C do in these assays?
eIF4H FP inh: 3; Rce1 inh: inactive; CSC inhib: 6; MT1-MMP act inh: 4; Yeast UUG start: -15; HIV Env fusion: -10; PABP polyA inh: 2; MT1-MMP act inh RFP: -3

How did COc1ccc2c(c1)c1nnc(SC)nc1n2C do in these assays?
eIF4H FP inh: -1; Rce1 inh: inactive; CSC inhib: -13; MT1-MMP act inh: -4; Yeast UUG start: 23; HIV Env fusion: -45; PABP polyA inh: -8; MT1-MMP act inh RFP: -4

Results for Cc1cc(N=CC2=C(O)CCCC2=O)no1 ?
eIF4H FP inh: 1; Rce1 inh: inactive; CSC inhib: -2; MT1-MMP act inh: 3; Yeast UUG start: -1; PABP polyA inh: 11; MT1-MMP act inh RFP: 5

Results for Cc1ccccc1-c1nc(-c2ccc(NC(=O)c3cccs3)cc2)no1 ?
eIF4H FP inh: -7; Rce1 inh: inactive; CSC inhib: 2; MT1-MMP act inh: -7; Yeast UUG start: -9; PABP polyA inh: 4; MT1-MMP act inh RFP: -12

How did Cc1ccc(C(=O)Nc2cccc(C(F)(F)F)c2)cc1NC(=O)c1ccno1 do in these assays?
eIF4H FP inh: 1; Rce1 inh: inactive; CSC inhib: -11; MT1-MMP act inh: -6&-4; Yeast UUG start: 11&-17; HIV Env fusion: 43&31; PABP polyA inh: -4; MT1-MMP act inh RFP: -3&0

What do the screens show for `CCOC(=O)N1CCC(N2C(=O)c3ccccc3C2Nc2cccnc2)CC1` (centres undefined)?
eIF4H FP inh: 2; Rce1 inh: inactive; CSC inhib: -4; MT1-MMP act inh: 2; Yeast UUG start: 3; HIV Env fusion: 7; PABP polyA inh: 13; MT1-MMP act inh RFP: 6

Results for O=C(COC(=O)COc1ccc(Cl)cc1)NCc1cccs1 ?
eIF4H FP inh: -10; Rce1 inh: inactive; CSC inhib: 10; MT1-MMP act inh: 4; HIV Env fusion: -15; PABP polyA inh: -6; MT1-MMP act inh RFP: 5

Results for Cc1ccsc1C(=O)NCCc1c[nH]c2ccccc12 ?
eIF4H FP inh: -9; Rce1 inh: inactive; CSC inhib: 1; MT1-MMP act inh: 1; Yeast UUG start: 8; HIV Env fusion: -26; PABP polyA inh: -7; MT1-MMP act inh RFP: -2

How did Brc1ccccc1-c1ccccc1 do in these assays?
CSC inhib: 3; MT1-MMP act inh: -1; Yeast UUG start: -3; MT1-MMP act inh RFP: 6

How did O=C1c2ccccc2C(Nc2ccccc2)N1Cc1ccc2c(c1)OCO2 (centres undefined) do in these assays?
eIF4H FP inh: -13; Rce1 inh: inactive; CSC inhib: -3; MT1-MMP act inh: 0; HIV Env fusion: -42; PABP polyA inh: 13; MT1-MMP act inh RFP: -7

How did COc1ncccc1-c1nnn(-c2ccccc2Br)n1 do in these assays?
Rce1 inh: inactive; CSC inhib: 9; MT1-MMP act inh: -2; Yeast UUG start: -2; HIV Env fusion: -12; MT1-MMP act inh RFP: 1

What do the screens show for `COc1ccc(CCCNC(=O)C2Cc3c(-c4cccc(C(N)=O)c4)ccnc3O2)cc1` (centres undefined)?
MT1-MMP act inh: -2; Yeast UUG start: -10; HIV Env fusion: -30; MT1-MMP act inh RFP: -11

Results for CN(C)N1C(=O)CC(N2CCCC2)C1=O (centres undefined) ?
eIF4H FP inh: -4; Rce1 inh: inactive; CSC inhib: 9; MT1-MMP act inh: 0; HIV Env fusion: -1; PABP polyA inh: -2; MT1-MMP act inh RFP: 3

Results for CS(=O)(=O)Nc1cccc(NC(=O)C2Cc3c(-c4ccco4)ccnc3O2)c1 (centres undefined) ?
MT1-MMP act inh: -11; Yeast UUG start: -15; HIV Env fusion: 5; MT1-MMP act inh RFP: -10

What do the screens show for `CCCNS(=O)(=O)c1ccc(OCC(=O)N2CCN(c3ccccc3)CC2)cc1`?
eIF4H FP inh: -1; Rce1 inh: inactive; CSC inhib: 9; MT1-MMP act inh: 1; HIV Env fusion: 17; PABP polyA inh: 8; MT1-MMP act inh RFP: -4

What do the screens show for `CC(=O)c1cccc(NS(=O)(=O)c2csc(C(N)=O)c2)c1`?
eIF4H FP inh: -3; Rce1 inh: inactive; CSC inhib: -14; MT1-MMP act inh: 5; Yeast UUG start: -19; HIV Env fusion: 6; PABP polyA inh: -4; MT1-MMP act inh RFP: 0

How did COc1ccccc1Oc1nc([N+](=O)[O-])nn1CC(N)=O do in these assays?
eIF4H FP inh: -1; Rce1 inh: inactive; CSC inhib: -3; MT1-MMP act inh: 0; Yeast UUG start: -19; HIV Env fusion: 7; PABP polyA inh: 3; MT1-MMP act inh RFP: -2

How did CC1NC(=O)c2ccccc2-n2c1nc1ccc(F)cc1c2=O (centres undefined) do in these assays?
MT1-MMP act inh: 0; Yeast UUG start: 1; HIV Env fusion: 15; MT1-MMP act inh RFP: 4
